# Vaccinia Venus: qHTS for Stage-Specific Inhibitors of Vaccinia Orthopoxvirus: Venus Reporter Primary qHTS; Vaccinia virus Venus reporter expression, fluorescence; Potency, µM (top dose mostly 36.5 µM), for inactives: top-dose activity change, negative = inhibition, usual class: inhibitors; 0.46% of 330,000 active; active means well fitted inhibition curve with a large enough effect; inconclusive means small, poorly fitted or top-dose-only effect; inactive means no such curve, though single readings can be large or run the other way; tested in A549 cells; also: nearly all actives have a fitted effect of over 30% in size; inactives centre near -10
# VACV mCherry inh: qHTS for Stage-Specific Inhibitors of Vaccinia Orthopoxvirus: mCherry Reporter Primary qHTS; Vaccinia virus mCherry reporter infection, fluorescence; about a quarter of the inactives have no number; Potency, µM (top dose mostly 36.5 µM), for the others: at the top dose activity change, negative = inhibition, actives largely listed as inhibitors; 0.63% of 310,000 active; AID 720579, 2013; active = well fitted inhibition curve with a large enough effect; inconclusive = small, poorly fitted or top-dose-only effect; inactive = no such curve, though single readings can be large or run the other way; tested in A549 cells; also: nearly all actives have a fitted effect of over 35% in size; inactives centre near -10
# * marks the source's active call; other numbers are inactive results; i = inactive; ? = inconclusive; / = no result given; [ ] = dose if it differs, or a comment. % is scaled to controls: 0 for no effect and ±100 for the full control effect; potency is read from the fitted curve at half-maximal effect.
SMILES,Vaccinia Venus,VACV mCherry inh
CCC(C(=O)Nc1ccccn1)c1ccccc1 (stereo not drawn),-8%[7.34 µM],i[7.34 µM]
COc1ccc(NC(=O)c2cccn(Cc3ccc(Cl)cc3)c2=O)c(OC)c1,?,-2%
CC(c1ccccc1)c1nnc(NC(=O)Nc2ccccc2)s1 (stereo not drawn),-26%,i
O=[N+]([O-])c1ccc(NC(=S)NCc2ccc(F)cc2)cc1,?,?
COc1cc(C)c(N(C(C)=O)c2ccccc2)c(C)c1,-10%,/
O=C(COC(=O)c1ccco1)NCc1ccc(F)cc1,1%,-3%
CCOC(=O)C(C#N)c1ccccn1 (stereo not drawn),2%,-6%
COc1ccc(-n2c3c(cc(C(=O)Nc4cccc(C)n4)c2=O)C(=O)CC(C)(C)C3)cc1,-4%,-4%
Cc1ccc(S(=O)(=O)Cc2ccc(C(=O)N3CCc4ccccc4C3)o2)cc1,-10%,i
COc1ccc2c(N)c(C(=O)NN)[nH]c2c1,10%,-8%
COc1ccc(-c2nnc3sc(CCN4C(=O)c5ccccc5C4=O)nn23)cc1,-1%,-3%
COc1ccc(F)cc1C(=O)C1CCCN(Cc2ccc(O)cc2)C1 (stereo not drawn),-10%,-19%
Cc1nccn1CC(=O)N/N=C/c1cccc(O)c1,-1%,-13%
CCc1ccc(C(=O)COC(=O)CCc2nc3ccccc3c(=O)[nH]2)cc1,-8%,-5%
C[C@@H]1ON(C)[C@H]2C[C@H]3c4cc(N5CCOCC5)ccc4CCN3C(=O)[C@@H]12,-7%,-28%
CC(O)(c1ccc(F)c(F)c1)c1nc(-c2ccc(S(C)(=O)=O)cc2)cs1 (stereo not drawn),-12%,18%
COc1ccc(-n2cnc3sc4c(c3c2=O)CCCC4)cc1,-2%,-15%
Cc1ccccc1/C=C/c1nc2ccccc2c(=O)[nH]1,-11%,i
COc1ccc(C2(c3ccc(OC)cc3)NC(=O)N(CC(=O)NC3CCCC3)C2=O)cc1,-14%,-22%
Cc1c(C(=O)NCCSCc2ccc(Cl)cc2Cl)cccc1[N+](=O)[O-],-28%,?
Cc1nc2ccccc2c(=O)n1NCc1cc(Br)cs1,0%,-22%
Cn1c2ccccc2c(=O)c2ccc(C#Cc3ccccn3)cc21,-21%,-4%
CN(C)c1ccc(NC(=O)CN2C(=O)c3ccccc3C2=O)cc1,-8%,-1%
Cc1ccc(Nc2nc3ccc(C(=O)c4ccccc4)cc3n3c(C)nnc23)c(C)c1,-20%,i

# Complete entries, looked up by structure. Order of screens: Vaccinia Venus	VACV mCherry inh
# C[C@@H]1ON(C)[C@H]2C[C@H]3c4cc(N5CCOCC5)ccc4CCN3C(=O)[C@@H]12 reads -7%	-28%
# Cc1ccccc1/C=C/c1nc2ccccc2c(=O)[nH]1 reads -11%	i
# Cc1ccc(Nc2nc3ccc(C(=O)c4ccccc4)cc3n3c(C)nnc23)c(C)c1 reads -20%	i

# Further records follow.
SMILES,Vaccinia Venus,VACV mCherry inh
O=C1NC[C@H](CCCCN2C[C@@H](Cc3ccccc3)N(Cc3ccccc3)C(=O)C2=O)N(CCC2CCCCC2)C1=O,3%,i
COc1ccc(S(=O)(=O)Nc2ccc(OCC(=O)O)cc2)c2ccccc12,-4%,-3%
CN(C(=O)c1cc(S(=O)(=O)N2CCCCC2)c[nH]1)C1CCCCC1,-10%,i
CCOc1ccc(CCNC(=O)c2nn(C)c3c2CSc2ccccc2-3)cc1,-15%,-15%
O=C1NC(c2ccccc2Cl)=N/C1=C/c1ccco1,-10%[7.34 µM],-19%[7.34 µM]
CCC(CC)c1nnc(NC(=O)C2CCCO2)s1 (stereo not drawn),-2%,-8%
CO/N=C(/CS(=O)(=O)Cc1ccccc1Cl)c1ccc(Cl)cc1Cl,-17%,-3%
COC(=O)c1ccc(CN(C)S(=O)(=O)c2cccs2)cc1,-6%,-9%
Cc1ccc2cc(CNC(C)CO)c(N3CCC(O)CC3)nc2c1 (stereo not drawn),25%,6%
O=C(NNc1ccccn1)c1ccccc1CC[N+](=O)[O-],-2%,2%
CN(C)S(=O)(=O)c1cccc(C(=O)Nc2ccc(Cl)cn2)c1,-11%,?
Fc1cccc(CCN2CCNC[C@@H]2CC2CCCCC2)c1,-24%,?

# Structures from the list above containing two or more sulfur atoms:
SMILES,Vaccinia Venus,VACV mCherry inh
CC(O)(c1ccc(F)c(F)c1)c1nc(-c2ccc(S(C)(=O)=O)cc2)cs1 (stereo not drawn),-12%,18%
COC(=O)c1ccc(CN(C)S(=O)(=O)c2cccs2)cc1,-6%,-9%

# The list continues.
SMILES,Vaccinia Venus,VACV mCherry inh
COc1cc2c(cc1OC)C(C(=O)Nc1cc(C)c(OC)c(C)c1)CC(=O)N2 (stereo not drawn),-12%,-2%
O=S1(=O)N[C@H](Cc2ccccc2)COc2cccc(N3CCC[C@@H]3CO)c21,0%,5%
Cc1cc(NC(=O)C2CCCO2)ccc1Br (stereo not drawn),?,-14%
CN(C)CCN1CC(O)=C(c2nc3ccccc3s2)C1=N,4%,i
O=S(=O)(NCC(c1cccnc1)N1CCN(Cc2ccccc2)CC1)c1ccc(Cl)cc1 (stereo not drawn),-9%,-22%
Cc1ccc(OCC(=O)NNC(=O)Cn2nnc(-c3ccccc3)n2)cc1,-6%,-9%
COc1ccc(NC(=O)c2ccc(Cl)cc2)c[n+]1[O-],-5%,-12%
CCOc1ccc(-n2cnc3sc4c(c3c2=O)CCCC4)cc1,-26%,-12%
Cc1cc(C)cc(NS(=O)(=O)c2ccc(NC(=S)NC(=O)c3ccc(Br)o3)cc2)c1,?,/
COC(=O)c1ccc(C(=O)OC)c(NC(=O)c2cccnc2)c1,-7%,-6%
COc1cc(Cc2cc(N)nc(N)n2)cc(OC)c1OC,-5%,i
Cc1cccc(N2CCN(C(=O)c3c(C)oc4ncnc(N5CCOCC5)c34)CC2)c1C,-7%,-13%
O=C(CN1C(=O)C2CCCCC2C1=O)Nc1nc2ccc(F)cc2s1 (stereo not drawn),-13%,-21%
CCCOc1ccc(/C(CC)=N/NC(=O)C2(C)CC2(Br)Br)cc1 (stereo not drawn),-18%,-28%
COc1cc(C(=O)Nc2cccc(-c3nc4cc(C)ccc4o3)c2)cc(OC)c1OC,-5%,-4%
CCOc1ccccc1NC(=O)CS(=O)(=O)c1cn(CC(=O)N2CCOCC2)c2ccccc12,-1%,-7%
COc1cc(OC)cc(C(=O)N2CC(=O)Nc3ccc(Cl)cc3C2c2ccccc2)c1 (stereo not drawn),-17%,-19%
CN(Cc1nc2c(s1)CCCC2)C(=O)CCc1nnc(-c2ccc3c(c2)OCO3)o1,7%,-1%
CCCCOc1ccc(NC(=O)c2cc(F)c(F)cc2Cl)cc1,-16%,-13%
Cc1cc(NC(=O)COc2ccccc2)n(-c2ccccc2)n1,-9%,-8%
CCOc1ccccc1CNC(=O)c1cc2occc2n1C,-14%,?
COc1ccc(NC(=O)C(C)N(c2ccc(C)cc2)S(C)(=O)=O)c(OC)c1 (stereo not drawn),-10%,/
COc1ccc(OCc2cc(C(=O)NC(C)c3nc(C)cs3)no2)c(Cl)c1 (stereo not drawn),-13%,-9%
CCC(C)c1ccccc1N1CC(C(=O)NCCc2ccc(OC)c(OC)c2)CC1=O (stereo not drawn),-4%,-17%
O=C(NCc1ccc(OC(F)(F)F)cc1)c1cccc2c1C(=O)c1ccc(N3CCCC3)cc1S2(=O)=O,81%[activator],?
O=C(CC1CCCCC1)NCc1ccccc1Cl,-13%,i
c1ccc(-c2ncc(CSc3nncn3-c3ccccc3)s2)cc1,?,/
CN(C)CCN1CCN(C2CN(Cc3ccccc3)S(=O)(=O)C2)CC1 (stereo not drawn),-1%,2%
CCOc1cc(/C=N/n2nnnc2N)ccc1OCc1c(C)no[n+]1[O-],?,?
C=CCOC(=O)C1=C[C@@H](c2cn(C(C)=O)c3ccccc23)C[C@@H](OCc2ccc(CO)cc2)O1,-12%,-7%
O=C(C[n+]1ccc2ccccc2c1)c1ccc(F)cc1,-28%,-10%
CCCOc1ccc(NC(=O)CC2C(=O)N(c3ccc(C)cc3)C(=O)N2CCc2ccncc2)cc1 (stereo not drawn),-14%,-11%
CCCCNC(=O)C1CCN(c2nc3ccccc3nc2C(F)(F)F)CC1,-4%,4%
CCOc1ccc(/C(O)=C2/C(=O)C(=O)N(CCN(C)C)C2c2ccccc2)cc1Cl (stereo not drawn),-10%,i
CCOC(=O)c1c(NC(C)=O)sc2c(O)c(Br)cc(Br)c12,-3%,-23%
Cc1ccsc1C1C(C#N)=C(N)N(N(C)C)C2=C1C(=O)CC(C)(C)C2 (stereo not drawn),-10%,i
CCCn1c(=N)n(CC(=O)O)c2ccccc21,-9%,-12%
c1ccc(NC(=NCc2ccco2)c2ccccc2)cc1,-11%,?
O=C(c1ccc(S(=O)(=O)Cc2ccccc2Cl)c([N+](=O)[O-])c1)N1CCN(c2ccccn2)CC1,-21%,?
O=C(COC(=O)c1cccnc1Cl)Nc1cc(S(=O)(=O)N2CCCCC2)ccc1Cl,0%,2%
CC[C@H](C)[C@@H]1NC(=O)c2cc([N+](=O)[O-])cc(F)c2OCC[C@@H](C(N)=O)NC(=O)[C@H](CCCCN)NC1=O,-19%,i
c1ccc(Cc2nn3c(C4COc5ccccc5O4)nnc3s2)cc1 (stereo not drawn),-8%,i
C[C@@H]1CC=C[C@H]2[C@H]1C(=O)N(Cc1ccccc1)[C@H]2c1ccc(-c2ccc(F)cc2)cc1F,-19%,i
COc1cc([N+](=O)[O-])ccc1NC(=O)N1CCC2(CC1)Nc1ccccc1-n1cccc12,-20%,-14%
CC(C)CC(=O)Nc1ccc2oc(-c3cccnc3)nc2c1,-12%,?
C/C=C(/C)C(=O)OC1CC[C@]2(C)C3CCC4[C@]5(O)CC(O)[C@]6(O)C(CN7CC(C)CCC7[C@]6(C)O)[C@]5(O)C[C@@]42O[C@]13O (stereo partly drawn),0%,i
O=C(Nc1ccc(CN2CCS(=O)(=O)CC2)cc1)c1ccc(Cl)cc1,-7%[7.34 µM],-15%[7.34 µM]
Cc1c(NC(=O)c2ccccc2NS(=O)(=O)c2ccc(F)cc2)c(=O)n(-c2ccccc2)n1C,-6%,i

# Some values from above:
# c1ccc(Cc2nn3c(C4COc5ccccc5O4)nnc3s2)cc1 (stereo not drawn) in Vaccinia Venus → -8%
# O=C(c1ccc(S(=O)(=O)Cc2ccccc2Cl)c([N+](=O)[O-])c1)N1CCN(c2ccccn2)CC1 in Vaccinia Venus → -21%
# CCCn1c(=N)n(CC(=O)O)c2ccccc21 in Vaccinia Venus → -9%
# c1ccc(NC(=NCc2ccco2)c2ccccc2)cc1 in Vaccinia Venus → -11%
# O=C(Nc1ccc(CN2CCS(=O)(=O)CC2)cc1)c1ccc(Cl)cc1 in Vaccinia Venus → -7%[7.34 µM]
# O=C(COC(=O)c1cccnc1Cl)Nc1cc(S(=O)(=O)N2CCCCC2)ccc1Cl in Vaccinia Venus → 0%

# More records
SMILES,Vaccinia Venus,VACV mCherry inh
COc1cc(/C=C2/C(=N)N3OC(C)=CC3=NC2=O)ccc1OC(=O)c1ccco1,14%,-29%
COc1ccc(-c2cc(C(=O)NCc3cc(OC)c(OC)c(OC)c3)[nH]n2)cc1,2%,-9%
COc1cccc(C(=O)C[n+]2ccccc2/C=N/O)c1,-8%,?
COC(=O)c1c(NC(=O)c2ccc(Br)o2)sc(C)c1C,8%,4%
CCC(=O)c1ccc(OCCn2cncn2)cc1,-13%,-14%
COC(=O)c1sccc1NC(=O)c1cc(-c2cccc(C)c2)nc2ccccc12,-5%,-8%
CCCCOc1ccc(/C=N/NC(=O)c2csc(C)c2C)cc1,-26%,-17%
COc1ccc(NC(=O)COc2ccc(C)c(C)c2)cc1S(=O)(=O)N1CCCCC1,-26%,-15%
CN(Cc1ccc(Cl)cc1)C(=O)c1ccc2ccccc2n1,-9%,-11%
CC(=O)N(Cc1ccccc1)c1nc(-c2ccccc2)cs1,-7%,-10%
COc1ccc(NC(=O)C(Cl)=C(Cl)Cl)cn1,-3%,-15%
Cc1ccc(-n2c(CNC(=O)c3cccs3)nnc2SCC(=O)NO)cc1,-2%,-6%
CCOc1ccc(N(CC(=O)NN=C2CCN(C)CC2)S(C)(=O)=O)cc1,-11%,-17%
CCc1cccc(CC)c1NC1=NS(=O)(=O)c2ccccc21,-10%,-6%
O=C(O)c1ccccc1C=NN1CCCCCC1,12%,-11%
Cc1cccc(-n2c(-c3csc4ccccc34)n[nH]c2=S)c1,-8%,i
Cc1[nH][nH]c(=O)c1C(c1c(C)[nH][nH]c1=O)c1cn(Cc2cccc3ccccc23)c2ccccc12,-14%,i
O=C1NC(NS(=O)(=O)c2ccccc2)(C(F)(F)F)C(=O)N1c1ccc(F)cc1 (stereo not drawn),13%,0%
CCN(C(=O)c1cc(S(=O)(=O)N2CCc3ccccc32)cn1C)c1ccccc1,-16%,-3%
Cn1c(=O)c(C(=O)NCc2ccc(Cl)cc2)c(O)c2ccccc21,2%,-23%
Cc1ccccc1NC(=O)c1ccc(CN(c2ccccc2)S(=O)(=O)c2ccccc2)cc1,-18%,-15%

# Bioassay records from PubChem.
